RE007 growth inh – less growth of the S. pombe RE007 Vpr strain; S. pombe RE007 Vpr strain, BacTiter-Glo ATP luminescence, 24 h; control for the full effect not named in the record; Potency, µM (series often up to 92.2 µM), for the others: at the highest dose activity change, negative = less growth; 360,000 tested, 0.21% active; AID 651644; active = well fitted falling curve with a large enough effect; inconclusive = small, poorly fitted or top-dose-only effect; inactive = no such curve, though single readings can be large or run the other way;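 further: on the % scale 0 is the no-effect control and ±100 the full control effect; nearly all actives have a fitted effect of over 50% in size; the assay follows cell death caused by Vpr and the record does not say whether a fall means rescue or toxicity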
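Fission yeast strain RE007, carrying one chromosomally integrated HIV-1 vpr copy, was seeded at OD 0.01 in PMG+AL medium with 23 nL pinned compound. After 24 h at 30 °C and 99% humidity, viability was read by BacTiter-Glo luminescence.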
NS1 function inh – blocks influenza NS1 protein function; S. cerevisiae slowed by influenza A NS1, growth recovery by OD600; Potency, µM (titrated, usually from 46.1 µM), for the others: top-dose activity, positive = more growth; 270,000 tested, 0.4% active; AID 2326; active means well fitted rising curve with a large enough effect; inconclusive means small, poorly fitted or top-dose-only effect; inactive means no such curve, though single readings can be large or run the other way; further: nearly all actives have a fitted effect of over 50% in size
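In this qHTS, NS1 from influenza A is expressed in budding yeast, where it slows growth. Cells are switched from glucose to 2% galactose medium (pH 6.0, -URA), treated with compound, and growth recovery is read at OD600.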
Cruzain Triton – cruzain (T. cruzi) inhibition with detergent. purified cruzain, Z-FR-AMC fluorescence, 0.01% Triton. Potency, µM, without a hit: max response, negative = inhibition, most hits filed as inhibitors. 200,000 tested, 0.43% active. AID 1478;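 further: plate controls were neutral wells for no effect and buffer without enzyme for full effect; nearly all actives have a fitted effect of over 40% in size; top concentration of the series not given in the record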
Target sequence (P25779 123-467 limits assumed): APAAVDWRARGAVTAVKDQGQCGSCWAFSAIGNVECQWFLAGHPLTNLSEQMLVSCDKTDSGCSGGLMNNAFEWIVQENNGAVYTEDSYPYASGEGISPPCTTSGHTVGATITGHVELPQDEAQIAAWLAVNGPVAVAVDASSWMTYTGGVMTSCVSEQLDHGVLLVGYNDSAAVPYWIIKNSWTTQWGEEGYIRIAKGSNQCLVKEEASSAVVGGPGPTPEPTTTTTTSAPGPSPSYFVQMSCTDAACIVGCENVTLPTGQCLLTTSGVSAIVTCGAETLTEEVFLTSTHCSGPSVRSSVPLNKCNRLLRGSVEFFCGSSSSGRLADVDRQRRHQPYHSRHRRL
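Detergent-containing arm of a paired screen for aggregation-based inhibition: 0.01% Triton X-100 present. Cruzain at 1.5 nM cleaved 2 uM Z-FR-AMC at pH 5.5 with 5 mM DTT; AMC fluorescence gain over 60 s measured activity.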
MARV entry inh – blocks Marburg virus binding to or entry into cells. Marburg virus pseudotyped entry inhibition, cell reporter; control for the full effect not named in the record; about a third of the inactives were read at about 46 µM. Potency, µM (highest dose often 37.8 µM), inactives show at the top dose activity change, negative = inhibition, actives largely listed as inhibitors. 300,000 tested, 1.8% active. AID 540276; active = well fitted inhibition curve with a large enough effect; inconclusive = small, poorly fitted or top-dose-only effect, or effect the other way; inactive = flat fitted curve, though single readings scatter; tested in HEK293 cells; about a fifth of its hits are not listed in these tables; further: on the % scale 0 is the no-effect control and ±100 the full control effect; luciferase read-out
Cruzain noTriton – inhibitors of Trypanosoma cruzi cruzain without detergent | P25779 | purified cruzain, Z-FR-AMC fluorescence, no detergent | Potency, µM, without a hit: max response, negative = inhibition, usual class: inhibitors | 200,000 tested, 2.3% active | AID 1476;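 further: plate controls were enzyme without inhibitor for no effect and buffer without enzyme for full effect; nearly all actives have a fitted effect of over 40% in size; top concentration of the series not given in the record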
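Detergent-free condition (0.00005% Triton X-100) in acetate buffer pH 5.5 with DTT. 1.5 nM enzyme and compound were pre-mixed 15 min, then 2 uM Z-FR-AMC substrate added; reaction progress from fluorescence change between first and third reads (60 s).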
SARS PLP yeast – SARS-CoV PLP inhibition in yeast | S. cerevisiae expressing SARS-CoV PLpro, growth rescue; control for the full effect not named in the record | Potency, µM (series often up to 32.9 µM), for inactives: top-dose activity, positive = growth rescue | 330,000 tested, 0.19% active | AID 485353; active means well fitted rising curve with a large enough effect; inconclusive means small, poorly fitted or top-dose-only effect; inactive means no such curve, though single readings can be large or run the other way; further: 0% is about no effect; nearly all actives have a fitted effect of over 55% in size; growth read by luminescence after 48 h
LASV entry inh – blocks Lassa virus binding to or entry into cells; 300,000 tested, 1.2% active; AID 540256; Potency, µM (titrated, usually from 37.9 µM), for the others: at the highest dose activity change, negative = inhibition, hits mostly inhibitors; Lassa virus pseudotype entry inhibition, cell reporter; control for the full effect not named in the record; active means well fitted inhibition curve with a large enough effect; inconclusive means small, poorly fitted or top-dose-only effect, or effect the other way; inactive means flat fitted curve, though single readings scatter; tested in HEK293 cells; further: on the % scale 0 is the no-effect control and ±100 the full control effect; nearly all actives have a fitted effect of over 50% in size; luciferase read-out
2A StopGo – lowers the luciferase signal of an FMDV 2A StopGo reporter; human cells with a luciferase reporter of 2A StopGo recoding; control for the full effect not named in the record; 410,000 tested, 1.2% active; Potency, µM (titrated, usually from 57.9 µM), inactives show at the top dose signal change, negative = less light; active = well fitted falling curve with a large enough effect; inconclusive = small, poorly fitted or top-dose-only effect; inactive = no such curve, though single readings can be large or run the other way; tested in HEK293T cells; further: on the % scale 0 is the no-effect control and ±100 the full control effect; nearly all actives have a fitted effect of over 45% in size; luciferase light after 4 h
* = called active by the depositor; ? = inconclusive; / = no result given; [ ] = dose if it differs, or a comment. Unless noted, the call rests on the fitted dose curve; in most records, active means well fitted curve in the direction sought with a large enough effect; inconclusive means small, poorly fitted or top-dose-only effect, or another doubt; inactive means no such curve, though single readings can be large; an effect the other way counts as inactive or inconclusive. Potency means the concentration at half of the fitted maximal effect.

SMILES	RE007 growth inh	NS1 function inh	Cruzain Triton	MARV entry inh	Cruzain noTriton	SARS PLP yeast	LASV entry inh	2A StopGo
NS(=O)(=O)c1ccc(CCNC(=O)C2CCCN(S(=O)(=O)c3cccnc3)C2)cc1 (stereo not given)	5%	-4%	6.6%	2%	0%	-4%	/	-23%
O=C1CC(N2CCN(c3ccccn3)CC2)C(=O)N1c1ccc(F)cc1 (stereo not given)	?	/	/	?	/	-7%	4%	-9%
C=CCNC(=O)C(=O)NCC(c1ccc2c(c1)OCO2)N1CCOCC1 (stereo not given)	-3%	-8%	/	16%[46.1 µM]	/	-9%	0%[46.1 µM]	12%
Cc1cccc(N(C)C(=O)CSc2nc3ncccc3o2)c1	/	/	-1.1%	/	2%	/	4%[46.1 µM]	-7%
COc1ccc(-c2cc(C(F)(F)F)nc(SCC(=O)NCCc3ccc(OC)c(OC)c3)n2)cc1	/	/	-3.3%	20%[46.1 µM]	-16%	/	15%[46.1 µM]	-26%
Cc1ccc(-c2nnc(SCc3ccc(C#N)cc3)n2Cc2ccco2)cc1	2%	-80%	-0.3%	-22%	4%	?	-14%	14%
CN(C)CCNC(=O)c1c(CSc2ccccc2)noc1C(=O)NCc1ccccc1	13%	1%	/	/	/	0%	/	5%
COc1c(/C=N/NC(=O)c2ccccc2O)c(CCN(C)C(C)=O)cc2c1OCO2	1%	7%	-8.5%	2%	1%	-19%	-4%	-6%
COc1ccc(OC)c(NC(=S)N2CCN(Cc3ccccc3)CC2)c1	-2%	1%	/	/	/	2%	/	0%
CC(OC(=O)c1cc(-c2cccnc2)nc2ccccc12)C(=O)Nc1ccc2ccccc2c1 (stereo not given)	-4%	22%	-2.9%	?	?	14%	-7%	0%
CCOC(=O)c1[nH]c(C)c(C(=O)NCCN2CCOCC2)c1C	5%	0%	-1.3%	/	-2%	-2%	/	-2%
CC(=O)N1CCc2cc(Br)cc(S(=O)(=O)N3CCC(C)CC3)c21	/	/	2.8%	-6%[46.1 µM]	-10%	/	8%[46.1 µM]	-12%
CC(=O)c1cccc(NC(=O)C(C)OC(=O)CCC2CCCCC2)c1 (stereo not given)	-13%	/	/	-2%	/	-3%	3%	-21%
Cc1sc2nc(C)n(/N=C/c3ccccc3)c(=O)c2c1C	0%[3.69 µM]	4%	0.7%	?	-5%	-1%	-13%	-4%
COc1ccc(CN2C(=O)CCCc3ccccc32)cc1	13%	-9%	/	?	/	1%	?	-9%
CCC1(CC)NC(=O)N(CC(=O)OCC(=O)Nc2ccccc2[N+](=O)[O-])C1=O	1%	/	/	?	/	0%	11%	-6%
Cc1cc(=O)oc(C)c1C(=O)NCC1COc2ccccc2O1 (stereo not given)	-3%	0%	1.4%	-6%	9%	-7%	-16%[14.3 µM]	13%
Cc1ccc(C(=O)n2cnnc2N)cc1C	0%[3.69 µM]	-3%	2.5%	7%	-1%	3%	25%	-10%
COc1ccc(C(=O)NCc2ncccc2C)cc1OC1CCN(C(C)=O)CC1	-24%	15%	/	0%	/	0%	37%	16%
CC(NC(=O)Cc1ccc(NS(=O)(=O)c2cccc(C(F)(F)F)c2)cc1)c1ccccn1 (stereo not given)	6%	21%	/	3%[46.1 µM]	/	14%	-15%	-13%
O=C1CC(c2c(F)cccc2Cl)c2c(ccc3ccccc23)N1 (stereo not given)	/	/	-11%	?	0%	/	2%[46.1 µM]	-26%
O=C(CNC(=O)c1ccccc1)OCC(=O)N1N=C(c2ccc(Cl)cc2)CC1c1ccco1 (stereo not given)	-16%	/	/	5%	/	-10%	-12%	-13%
CCOC(=O)c1cnc(SCC(=O)Nc2ccc(N3CCOCC3)cc2)nc1N	/	6%	2.6%	0%	-6%	2%	/	/
Cc1cccc(C)c1NC(=O)CNC(=O)Cc1ccc(Br)cc1	2%	/	/	-5%	/	-3%	6%	-3%
COc1cccc(Cn2nnc(C(=O)Nc3cc(Cl)ccc3OC)c2N)c1	2%	12%	-1.5%	/	-21%	4%	/	-9%
Nc1nc(-c2ccco2)nn1S(=O)(=O)c1ccc(Cl)cc1	5%	2%	/	-27%[46.1 µM]	/	-1%	-4%	-15%
COCCNC(=O)CSc1nc2cc3c(cc2c(=O)n1Cc1ccco1)OCO3	1%[3.69 µM]	5%	-0.2%	-14%	2%	-4%	-2%	-24%
CC1=C(C(=O)OCCOC(C)C)C(c2cccnc2)C2=C(CCCC2=O)N1 (stereo not given)	12%	-6%	8.3%	26%	4%	0%	13%	-21%
O=C(COc1ccc(F)cc1)NN1C(=O)CSC1=S	8%	/	/	25%[46.1 µM]	/	1%	0%	0%
O=C(Nc1ccc(Cl)cc1)Nc1nc(-c2sccc2Br)cs1	-13%	9%	5.9%	?	10µM*	5%	?	1%
Cc1cc([N+](=O)[O-])cnc1Sc1nccn1C	7%	16%	-3.9%	1%	-4%	-14%	8%	4%
CCc1nc(SCC(=O)N2CCCc3ccccc32)c2oc3ccccc3c2n1	14%[3.69 µM]	5%	-1.6%	?	3%	-2%	18µM*	-1%
O=C(N/N=C/c1cccc2ccccc12)c1ccncc1	3%	-18%	/	/	/	0%	/	17%
O=C(Nc1ccc(Cl)cc1Cl)c1ccc(Br)o1	-19%	-35%	/	?	/	-9%	2%	48%[activator]
CCn1nc(C)c(CN2CCc3c([nH]c4ccccc34)C2C(C)(C)C)c1C (stereo not given)	2%	-4%	/	?	/	1%	-1%[46.1 µM]	-18%
O=C(N/N=C/c1ccccc1F)c1ccc(COc2ccccc2Cl)o1	-3%	19%	-8.8%	-21%	-2%	-1%	?	-8%
O=C(Nc1ccc(F)cc1)Nc1ccc2snnc2c1	/	/	-21%	?	-6%	/	-26%[46.1 µM]	-17%
CCN1C(=O)[C@H]2[C@@H](c3ccc(C)cc3)N3C(=O)N(c4cccc(C)c4)C(=O)[C@@]3(Cc3ccccc3)[C@H]2C1=O	-11%	-22%	/	/	/	9%	/	-5%
O=C(O)c1ccc(Cn2c(SCc3ccc(F)cc3)nc3ccncc32)cc1	/	/	-3.4%	6%[46.1 µM]	3%	/	/	-12%
CCN(CC)c1ccc(NC(=O)CCNS(=O)(=O)c2ccc3c(c2)CCC(=O)N3)c(C)c1	6%	7%	/	/	/	-4%	/	-19%
COc1cc(S(=O)(=O)NCC2COCCO2)ccc1-n1cnnn1 (stereo not given)	-4%	5%	4.3%	14%	-7%	0%	-2%	/
Cc1ccc(S(=O)(=O)N2CCOCC2)cc1NC(=O)COC(=O)c1ccc(OCc2c(C)noc2C)cc1	2%	12%	5.8%	-3%	?	?	4%	0%
COc1ccc(N2CC(O)=C(c3nc(C)cs3)C2=N)cc1	-7%	-14%	-0.3%	15%	13%	4%	-1%	/
O=C(O)CCSc1nnc(-c2cccnc2)n1-c1ccccc1	6%	14%	12%	22%	12%	12%	9%	-12%
Cc1ccc(CNC(=O)CCc2nc3ccccc3c(=O)[nH]2)cc1	13%	0%	2.2%	12%	13%	-15%	-12%	0%
O=S(=O)(c1ccccc1F)N1CCN(C(=S)NCc2ccccc2)CC1	-15%	/	/	/	/	0%	0%	36%[activator]
Cc1cccc(N2CCN(C(=O)c3cnn(-c4ccccc4)c3C3CCN(C(=O)OC(C)(C)C)CC3)CC2)c1C	/	/	1.7%	/	-12%	/	?	-27%
COc1ccc(NC(=S)NCc2ccccc2Cl)c(OC)c1	7%	0%	/	?	/	2%	?	20%
N#C/C(=C\c1ccc[nH]1)C(=O)Nc1ccccc1Cl	0%	-1%	/	2%[46.1 µM]	/	4%	27%[46.1 µM]	24%
CC1CCN(c2ccc(/C=C(\C#N)c3nn(-c4ccccc4)c(N)c3C#N)cc2[N+](=O)[O-])CC1	-3%	7%	-2.6%	-1%	-11%	-12%	0%	?
Further entries:
SMILES	RE007 growth inh	NS1 function inh	Cruzain Triton	MARV entry inh	Cruzain noTriton	SARS PLP yeast	LASV entry inh	2A StopGo
COc1ccc(-c2c(C)c3ccc(O)c(CN4CCOCC4)c3oc2=O)cc1OC	/	/	-8.5%	/	-21%	/	-4%[46.1 µM]	-15%
CC(C)(C)SCCNC(=O)CN(c1ccc(F)cc1)S(C)(=O)=O	-1%	3%	-2.4%	-4%	7%	13%	9%	5%
COc1ccc(-n2nc(C(=O)NCC(=O)NCCC3=CCCCC3)c3ccccc3c2=O)c(OC)c1	10%	5%	/	-1%[46.1 µM]	/	0%	-21%	-27%
CC1CCN(C(=O)C2CCN(CCCc3ccccc3)CC2)CC1	/	-9%	2.8%	1%	6%	-20%	/	/
Cc1nnc2ccc(-c3cccc(NC(=O)c4ccco4)c3)nn12	5%	/	/	-3%[46.1 µM]	/	1%	-11%	-21%
Cc1ccc(C(=O)NCCCNC(=O)Cc2ccccc2)cn1	-10%	2%	/	9%[46.1 µM]	/	2%	-7%	25%
O=C(Cc1csc(NC(=O)Nc2cccc(Cl)c2)n1)NCc1ccccn1	-12%	/	/	?	/	1%	-10%	8%
COCCNC(=S)N1CCN(C(=O)C(=O)Nc2ccc(C(=O)OC)cc2)CC1	-6%	-4%	0.1%	11%	7%	-14%	12%	-14%
O=C(NCCc1csc(-c2ccc(F)cc2)n1)c1ccc(Br)o1	/	/	-9.4%	/	20%	/	-10%[46.1 µM]	-14%
Cc1c(C(=O)Nc2ccccc2Cl)oc2ccc(S(=O)(=O)N3CCCCCC3)cc12	/	/	0.9%	/	3%	/	2%[46.1 µM]	9%
O=C(CCc1nc(-c2ccccc2F)no1)NCCN1CCN(Cc2ccccc2)CC1	-6%	-1%	-0.7%	-18%	-5%	1%	-13%	0%
Cc1sc2nc[nH]c(=O)c2c1-c1ccc(Cl)cc1	-4%	-1%	/	?	/	-2%	16%[46.1 µM]	-19%
COc1ccc2cc(C(=O)C3CCCN(C(=O)c4cnccn4)C3)ccc2c1 (stereo not given)	8%	0%	/	7%[46.1 µM]	/	-2%	?	3%
COC(=O)c1ccc(NC(=O)CC2C(=O)N(C)C(=S)N2Cc2ccc(S(N)(=O)=O)cc2)cc1 (stereo not given)	2%	-10%	/	0%	/	1%	/	19%
COc1cc(C(=O)Oc2cccc(Nc3ncnc4ccccc34)c2)cc(OC)c1OC	6%	-2%	-12%	?	-1%	-19%	?	/

High-throughput results from PubChem.
